Screening data as filed in PubChem BioAssay.
rRNA inh HTS = inhibitors of bacterial rRNA selective over humanized ribosomes. E. coli WT GFP vs humanized-ribosome RFP mutants, fluorescence, 24 h; stronger effect = lower value; DMSO median 0, no signal -100. GFP signal change (wild-type ribosome), % (test concentration not listed). hit rate 1.6% among 350,000. AID 720706;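 active = significant combined selectivity score with lowered wild-type GFP, culture density cut under 30%, mutant RFP and density less affected; inactive = any of these conditions unmet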; note: one replicate is shown; some compounds called inactive have numbers as strong as hits
E coli growth = blocks Escherichia coli growth. hit rate 0.21% among 330,000. OD600 absorbance (test concentration not listed). AID 1053175. OD600, 23 h; stronger effect = lower value;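 active = OD600 absorbance below the run mean of sample wells minus 3.6 SD, in any replicate, cut at about 0.56 in these data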;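 note: stock transfer was 300 nL into about 60 µL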
FGF22 binding = binders of recombinant human FGF22 by thermal shift; SYPRO orange fluorescence; percent of sucrose octasulfate shift, DMSO zero; calls only at 9.99 µM; hit rate 1.5% among 340,000; AID 651658;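 active = melting point raised past a set limit in the mean and every replicate; inconclusive = no clear call; three in four hits are not shown here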
Target sequence (Q9HCT0 whole entry, looked up): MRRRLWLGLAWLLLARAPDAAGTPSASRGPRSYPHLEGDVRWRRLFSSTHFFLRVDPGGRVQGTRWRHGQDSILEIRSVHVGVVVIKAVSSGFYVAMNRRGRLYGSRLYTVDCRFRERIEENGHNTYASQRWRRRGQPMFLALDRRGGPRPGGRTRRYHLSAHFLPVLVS
T cruzi inh = T. cruzi replication inhibition | T. cruzi beta-gal in NIH3T3, luminescence, 90 h | inhibition, % (no concentration beside the values) | hit rate 1.4% among 300,000 | AID 1885;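 active = mean inhibition across valid replicates above about 55%, limit read from the data; inconclusive = mean below that limit but half or more replicates reach it; inactive = mean below it, under half of replicates reach it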;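 note: signal also drops with host cell toxicity which is not excluded here; 0% = plate median of DMSO wells and 100% = zero luminescence signal; higher percent means less beta-gal luminescence so fewer parasites; stock transfer was 50 nL into about 50 µL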
AF4-AF9 inh = blocks AF4 peptide binding to human AF9. inhibition, % at 10 µM. hit rate 0.47% among 350,000. AlphaScreen, biotin-AF4 peptide binding to FLAG-AF9. AID 651704;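 active = every replicate reaching a set inhibition limit, whatever the replicate mean, cut at about 25% in these data; inconclusive = mean inhibition reaches that limit but some replicates miss it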;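 note: 0% = plate neutral control median and 100% = total signal loss; the record names both 10 and 1 µM as test concentration; the first replicate is given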
Target sequence (P42568 whole entry, looked up): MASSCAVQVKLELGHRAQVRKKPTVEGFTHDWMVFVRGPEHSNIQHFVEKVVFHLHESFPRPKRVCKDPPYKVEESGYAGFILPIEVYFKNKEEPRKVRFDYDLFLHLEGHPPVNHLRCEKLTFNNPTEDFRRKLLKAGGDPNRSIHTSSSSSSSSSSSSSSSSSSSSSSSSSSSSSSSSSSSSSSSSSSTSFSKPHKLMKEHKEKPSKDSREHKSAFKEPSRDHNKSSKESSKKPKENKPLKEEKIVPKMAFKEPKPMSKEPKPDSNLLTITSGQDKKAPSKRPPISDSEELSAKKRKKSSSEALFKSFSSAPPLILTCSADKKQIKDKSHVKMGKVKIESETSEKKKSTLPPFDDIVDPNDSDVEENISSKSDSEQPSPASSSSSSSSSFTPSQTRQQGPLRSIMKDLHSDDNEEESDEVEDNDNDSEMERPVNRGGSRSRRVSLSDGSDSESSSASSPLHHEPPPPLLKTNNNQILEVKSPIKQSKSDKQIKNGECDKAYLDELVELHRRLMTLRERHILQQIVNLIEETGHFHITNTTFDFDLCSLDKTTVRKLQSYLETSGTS
UCH37 DUB inh = blocks the human deubiquitinase UCH37; Q9Y5K5; purified proteasome/UCH37, Ub-AMC cleavage fluorescence; inhibition, % (test concentration not listed); hit rate 0.33% among 330,000; AID 588478;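 active = mean of two replicates above 20%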;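 note: 0% = compound-free wells with enzyme and 100% = wells lacking proteasome; stock transfer was 100 nL into about 20 µL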
Target sequence (Q9Y5K5 whole entry, looked up): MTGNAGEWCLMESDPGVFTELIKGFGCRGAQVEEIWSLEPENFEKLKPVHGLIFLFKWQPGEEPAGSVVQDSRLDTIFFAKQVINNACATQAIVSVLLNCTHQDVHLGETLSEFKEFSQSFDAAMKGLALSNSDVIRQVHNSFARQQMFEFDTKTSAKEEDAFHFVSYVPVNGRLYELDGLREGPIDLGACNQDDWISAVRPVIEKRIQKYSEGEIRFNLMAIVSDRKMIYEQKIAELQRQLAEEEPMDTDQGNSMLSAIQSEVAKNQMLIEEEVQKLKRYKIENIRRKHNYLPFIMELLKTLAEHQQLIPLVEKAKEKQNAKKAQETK
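assay system = human UCH37 enzyme supplied as purified proteasome complex | amount = proteasome at 0.15 nM in the dispensed enzyme solution | schedule = 30 min compound-proteasome preincubation then 25 min substrate reaction, room temperature | measured by = fluorescence, ex 355 nm, em 460 nm | benchmarks = no-proteasome wells (full inhibition) and compound-free wells (no inhibition)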
A1 inh = inhibitors of the anti-apoptotic protein A1, read as caspase activation; hit rate 0.066% among 330,000; MEF A1-2A-BIM cells, Caspase-Glo 3/7 luminescence, 3 h; percent of clofoctol response, vehicle zero; caspase activation, % (no concentration beside the values);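 active = over half of replicate activation scores above 10%, or exactly half above 10 with the replicate mean above 10; inconclusive = replicate mean below 10 yet half the replicates above 10; inactive = over half of replicates below 10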;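 note: wells of about 30 µL received 50 nL stock; many hits fall short of the cut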
Beta apoptosis = blocks beta cell apoptosis; INS-1E cytokine-induced death, ATP luminescence, 48 h; percent of positive-control rescue, neutral wells zero; protection from apoptosis, % (concentration not given with the values); hit rate 0.8% among 300,000; AID 435005;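 active = all replicates at 75% or more, or half of them and the mean; inconclusive = half reach 75% but not the mean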;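 note: 0% = cytokine-treated negative control wells and 100% = positive control rescue; higher means more ATP so stronger rescue from cytokine killing; wells of about 40 µL received 100 nL stock; the first replicate is given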
rRNA inh HTS OD600 = further read-out of rRNA inh HTS, marked with its call; OD600 change, %; measured here: OD600 growth;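 optical density of the mix in the first replicate; 0 = DMSO median and -100 = no signal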
rRNA inh HTS RFP = further read-out of rRNA inh HTS, marked with its call; RFP signal change, %; measured here: RFP humanized mutant strains;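 first replicate; 0 = DMSO median and -100 = no signal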
Starred values were filed as active, the others as inactive; i = inactive; ? = inconclusive; nt = not tested or not shown.

SMILES	rRNA inh HTS	rRNA inh HTS OD600	rRNA inh HTS RFP	E coli growth	FGF22 binding	T cruzi inh	AF4-AF9 inh	UCH37 DUB inh	A1 inh	Beta apoptosis
COc1ccc(C(=O)Nc2ccc3c(c2)nc2n3CCSC2)cc1	nt	nt	nt	0.65	nt	12	nt	4.3	-0.5	12
Cc1occc1C(=O)NNC(=O)c1cccc(F)c1	9	15	3.1	0.66	i	-8	0.8	-0.4	0.8	0
COc1ccc(C(=O)NC2CC2)cc1OC1CCN(Cc2cnn(C)c2)CC1	3	7	2.3	0.69	i	-2	-8.6	3.4	-0.5	-4
O=C(CNCCO)N1N=C(c2cccs2)CC1c1cccs1 (stereo not given)	8	7	0.0	0.68	i	-17	-0.1	-0.9	-0.6	-9
O=C(NN=Cc1ccccc1Cl)c1ccc([N+](=O)[O-])cc1	-2	2	-3.4	0.69	i	nt	-1.1	2.8	nt	nt
O=S(=O)(Cc1ccccc1)C1CCCCC1O (stereo not given)	13	16	2.3	0.73	i	-9	-1.5	4.6	0.0	-2
CCCCCn1c(SCC(=O)CC(=O)OCC)nc2cc(C(=O)N3CCC(C(N)=O)CC3)ccc2c1=O	-8	-18	5.9	0.69	i	-7	0.6	6.0	-0.1	-16
Cc1cccc(-n2c(Cc3cc(=O)[nH]c(=O)[nH]3)nnc2SCC(=O)N2CCc3ccccc32)c1	6	2	0.9	0.69	i	-3	-21	1.0	1.1	5
CCCOc1ccc(C2c3c(oc4ccccc4c3=O)C(=O)N2CCCN2CCOCC2)cc1 (stereo not given)	nt	nt	nt	0.69	nt	-1	nt	-1.1	-0.1	-5
O=C(CCS(=O)(=O)Cc1ccccc1)Nc1nncs1	11	5	2.9	0.66	i	-9	-1.7	3.2	0.2	-12
CCN(c1ccccc1)S(=O)(=O)c1ccc(C(=O)Nc2ncccc2C)cc1	1	-3	2.1	0.67	i	-1	-4.3	1.1	0.3	-6
CCOc1cccc(C(=O)Nc2nccs2)c1	nt	nt	nt	0.73	nt	-3	nt	-1.2	-8.7	-2
CN(C)CC(C)(C)CNc1ccc(S(=O)(=O)N2CCCC2)cn1	11	4	0.5	0.66	i	nt	2.8	3.6	1.1	0
Cc1ccc(S(=O)(=O)N2CCC(C(=O)OCC(=O)N(CC(C)C)C3CCS(=O)(=O)C3)CC2)cc1C (stereo not given)	8	16	1.4	0.68	i	-15	0.6	-1.0	0.6	1
CC(=O)N1CCc2cc(S(=O)(=O)NCCC(=O)N3CCc4ccccc4C3)ccc21	nt	nt	nt	0.67	nt	-14	nt	1.4	-0.1	7
O=c1cc(CO)oc(C(Nc2ccccn2)c2cccc(F)c2)c1O (stereo not given)	-7	1	6.0	0.69	i	-5	8.9	6.9	0.3	-10
O=C(NC1(c2ccccc2)CC1)C1CCC(=O)N(Cc2ccc(Cl)cc2)C1 (stereo not given)	-2	-2	1.6	0.69	i	0	-0.1	4.2	-0.3	0
COCC(C)NC(=O)NC1(C(F)(F)F)Oc2ccc(Cl)cc2O1 (stereo not given)	nt	nt	nt	0.69	nt	-19	nt	4.7	1.1	1
Cc1cc2ncn(C(=O)c3cc(-c4ccccc4)nc4ccccc34)c2cc1C	-17	-19	-9.1	0.7	i	-3	-0.5	-5.4	-0.3	-10
NS(=O)(=O)c1ccc(NC(=O)COC(=O)Cc2c[nH]c3ccccc23)cc1	3	2	-0.3	0.69	i	nt	2.9	2.7	-0.9	-4
O=c1c2c3c(sc2n2cnnc2n1CCc1ccccc1)CCCC3	nt	nt	nt	0.72	nt	3	nt	2.2	0.3	0
COC(=O)c1ccc(NC(=O)CSc2nnc(COc3ccccc3)n2C)cc1	nt	nt	nt	0.69	nt	0	nt	-1.0	0.3	-9
COc1cccc(NC(=O)c2oc3ccccc3c2NC(=O)C2CC2)c1	4	9	-0.6	0.71	nt	11	nt	-8.1	?	7
CCc1cccc2c1NC(=O)C2(O)CC(=O)c1cccs1 (stereo not given)	13	13	4.3	0.73	i	-4	-1.2	4.1	0.9	-6
CSc1ccccc1NC(=O)c1ccc(Br)o1	nt	nt	nt	0.71	nt	3	nt	-4.2	-2.3	-8
CCN(Cc1ccccc1)Cc1c(F)cccc1F	9	4	-4.4	0.69	i	-24	-32	-0.4	0.0	0
C=CCN1C(=O)N/C(=C/c2ccccc2OCC(=O)Nc2ccc(F)cc2)C1=O	0	-5	-2.0	0.73	nt	25	-0.4	-117	0.8	2
O=c1ccc(-c2ccc(S(=O)(=O)Nc3ccccc3)o2)n[nH]1	0	9	-0.4	0.7	i	-10	-0.7	3.7	0.5	-4
CCC(=O)Nc1c2c(nn1-c1ccc(C)cc1C)CSC2	nt	nt	nt	0.69	nt	16	nt	1.5	-0.3	7
O=S(=O)(c1cccc2nsnc12)N1CCOCC1	nt	nt	nt	0.65	nt	-14	nt	-0.5	0.3	-7
O=C(NC(=S)NCCC1=CCCCC1)c1ccc(Br)o1	-27	-48	15	0.74	nt	31	1.7	1.2	-0.4	1
COc1cc(OC)cc(C(=O)N[C@H](C(=O)NCc2ccco2)C(C)C)c1	4	6	0.9	0.7	i	-5	-2.7	3.7	0.3	-5
CCOc1ccc(OCC(=O)N(C)c2c(N)n(Cc3ccccc3)c(=O)[nH]c2=O)cc1	2	4	-0.8	0.69	i	3	-17	2.1	-0.4	1
O=C(Nc1nccs1)c1ccc(N2CCOCC2)c([N+](=O)[O-])c1	8	7	3.0	nt	i	-5	7.5	nt	-0.5	2
CCn1cc(/C=C(\NC(=O)c2ccc(OC)c(OC)c2)C(=O)N2CCN(C)CC2)c2ccccc21	5	-5	0.7	0.71	i	15	3.5	8.7	-1.4	-3
CC(O)CC(=O)NOCc1ccccc1 (stereo not given)	9	6	-1.5	0.7	i	nt	-2.1	0.3	nt	nt
O=C(CCc1nc2ccccc2c(=O)[nH]1)N1CCN(S(=O)(=O)c2ccccc2Br)CC1	-11	-18	-1.8	0.7	i	6	0.6	5.9	0.9	-5
CCc1nc2oc3cc(OC)ccc3c(=O)c2c(=O)n1Cc1ccco1	nt	nt	nt	0.72	nt	nt	nt	1.7	0.8	0
CC1CCN(C(=O)COC(=O)CNC(=O)C23CC4CC(CC(C4)C2)C3)CC1	0	6	-0.3	nt	nt	-6	-1.0	nt	-1.0	nt
Cc1cc(NC(=O)c2ccc([N+](=O)[O-])o2)ccc1NC(=O)c1ccco1	nt	nt	nt	0.61	i	44	0.3	6.2	nt	nt

One compound at a time (already shown). Order of screens: rRNA inh HTS	rRNA inh HTS OD600	rRNA inh HTS RFP	E coli growth	FGF22 binding	T cruzi inh	AF4-AF9 inh	UCH37 DUB inh	A1 inh	Beta apoptosis
Entry for Cc1cc(NC(=O)c2ccc([N+](=O)[O-])o2)ccc1NC(=O)c1ccco1 = nt	nt	nt	0.61	i	44	0.3	6.2	nt	nt
Entry for CC(O)CC(=O)NOCc1ccccc1 (stereo not given) = 9	6	-1.5	0.7	i	nt	-2.1	0.3	nt	nt

Carrying on.
SMILES	rRNA inh HTS	rRNA inh HTS OD600	rRNA inh HTS RFP	E coli growth	FGF22 binding	T cruzi inh	AF4-AF9 inh	UCH37 DUB inh	A1 inh	Beta apoptosis
CN(Cc1ccc(Br)s1)C(=O)CNC(=O)c1ccc2c(c1)OCO2	-13	-9	0.1	0.7	i	nt	1.6	-0.3	0.9	-1
O=C(c1ccccc1)c1ccc(-c2ccc(O)cc2)cc1	-28*	-19*	-10*	nt	i	-26	2.3	nt	-0.7	5
O=C1OCCN1C(=O)[C@H]1[C@H](c2ccccc2)C(c2ccc(F)cc2)=NN1c1ccc(Br)cc1	30	24	3.2	0.7	i	nt	-5.7	-456	nt	nt
NS(=O)(=O)c1ccc(NC(=O)COc2ccc(S(=O)(=O)N3CCCC3)cc2)cc1	-5	-5	-2.4	0.71	i	1	0.3	2.9	0.0	1
CCOC(=O)c1ccc(CN(Cc2ccc(C)cc2)S(=O)(=O)c2cccc([N+](=O)[O-])c2)cc1	nt	nt	nt	0.72	i	2	4.7	5.1	0.2	2
CCOc1cccc2cc(C(=O)N3CCc4ccccc4C3)c(=O)oc12	nt	nt	nt	0.67	nt	1	nt	3.0	-0.9	-3
COCCn1c(SCC(=O)N2CCCc3ccccc32)nnc1-c1ccoc1C	nt	nt	nt	0.69	nt	7	nt	1.2	-0.1	-7
CCn1c(COc2cccc3ccccc23)nnc1SCC(=O)OC1CCCCC1	6	2	7.3	0.67	i	-2	-10	1.9	0.1	-5
C=CCN1CCN(C(c2cccc(OC)c2OC)c2nnnn2CCC(C)C)CC1 (stereo not given)	0	5	-1.0	0.64	i	7	4.4	1.9	-0.2	0
COCCN(C(=O)COC(=O)/C=C/c1ccc(C(F)(F)F)cc1)c1c(N)n(Cc2ccccc2)c(=O)[nH]c1=O	14	17	4.5	0.72	i	1	0.0	1.5	0.1	-2
CN(CC(=O)Nc1ccncc1)S(=O)(=O)c1ccccc1	nt	nt	nt	0.8	nt	-23	nt	0.9	-0.1	2
CCCc1cc(=O)[nH]c(SCC(=O)c2cc(C)n(-c3c(C)n(C)n(-c4ccccc4)c3=O)c2C)n1	7	15	2.9	0.67	i	-9	-4.2	-2.7	-0.2	2
COCCNC(=S)N(CCc1c(C)[nH]c2ccccc12)Cc1ccco1	-31	-25	-3.1	0.7	i	9	9.3	4.9	-1.2	-3
CCOC(=O)Cc1csc(NC(=O)COc2c(C)cccc2C)n1	-29	-32	-8.0	0.65	i	-8	-7.9	0.6	?	-6
O=c1c(Cc2c(F)cccc2Cl)c(O)ccn1Cc1ccc2c(c1)OCO2	4	-3	0.0	0.63	i	5	-2.0	0.9	0.3	2
COc1ccc(C2=NN(C(C#N)c3ccc(OC)c(OC)c3)C(c3ccccc3)C2)cc1 (stereo not given)	nt	nt	nt	0.72	nt	26	nt	-3.7	-5.6	4
O=C(COc1ccc2c(C(F)(F)F)cc(=O)oc2c1)Nc1ccc(N2CCOCC2)cc1	15	9	-0.8	0.67	i	29	-1.5	2.8	-0.4	0
COc1ccccc1Oc1coc2cc(O)ccc2c1=O	nt	nt	nt	0.7	nt	-10	nt	-194	0.7	nt
O=C(NCc1cccnc1)c1ccc(Cl)c(S(=O)(=O)Nc2ccccc2C(=O)NCc2cccnc2)c1	-11	-21	-4.3	0.71	nt	-3	4.6	2.1	1.3	-3
CCn1ncc(Br)c1C(=O)NC1CCCCCCC1	-29	-29	-4.6	0.69	i	9	-8.9	0.5	0.3	0
COc1ccc(C/C(N)=N/n2cnnc2)cc1	9	1	-2.3	0.72	i	-6	5.1	-0.1	0.5	0
Cc1cccc(OCC(=O)N2CCN(C(=O)c3ccc([N+](=O)[O-])cc3)CC2)c1	4	9	3.4	0.69	nt	-4	0.3	3.4	0.4	-3
COC(=O)c1cn(-c2ccccc2)nc1-c1ccccc1	nt	nt	nt	0.78	nt	-2	nt	-1.0	0.5	1
CC1(C)CC(NC(=O)c2ccc3c(c2)OCO3)CC(C)(C)N1	nt	nt	nt	0.7	nt	-15	nt	0.6	1.3	-2
O=C(c1ccc2ccccc2c1)N1CCN(Cc2ccccc2)CC1	-22	-17	14	0.67	i	7	-0.8	4.1	-3.5	-10

Some of the compounds tested. The share of hits here may be higher or lower than overall.
